Compound activity as filed in PubChem.
HPGD inh = qHTS Assay for Inhibitors of HPGD (15-Hydroxyprostaglandin Dehydrogenase); 15-hydroxyprostaglandin dehydrogenase [NAD(+)] (Homo sapiens), P15428; purified HPGD, NADH fluorescence kinetic, PGE2 substrate; Potency, µM, for the others: top-dose activity change, negative = inhibition, hits mostly inhibitors; 4.3% of 150,000 active; AID 894, 2007; active = well fitted inhibition curve with a large enough effect (not every such curve was filed as active); inconclusive = small, poorly fitted or top-dose-only effect, or another doubt; inactive = no such curve, though single readings can be large or run the other way;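 also: top concentration of the series not given in the record; plate controls included wells without enzyme; inactives centre near -10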
Target sequence (P15428 whole entry, looked up): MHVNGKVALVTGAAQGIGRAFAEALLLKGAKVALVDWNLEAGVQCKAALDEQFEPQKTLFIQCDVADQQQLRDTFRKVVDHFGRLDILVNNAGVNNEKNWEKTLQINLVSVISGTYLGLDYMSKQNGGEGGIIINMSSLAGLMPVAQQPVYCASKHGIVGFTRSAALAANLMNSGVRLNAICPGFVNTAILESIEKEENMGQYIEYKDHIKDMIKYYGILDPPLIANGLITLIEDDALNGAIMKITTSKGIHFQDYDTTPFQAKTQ
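NADH formation kinetics: reaction with 30 uM PGE2 and 1 mM NAD+ (final), 20 nM enzyme, Tris-HCl pH 8 with Tween 20, after 15 min compound preincubation at room temperature. Fluorescence change, last versus first of five reads.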
Active calls of the source: *; ? = inconclusive; & = joins results of further samples. % is scaled to controls: 0 for no effect and ±100 for the full control effect; potency is read from the fitted curve at half-maximal effect.

canonical_smiles	HPGD inh
Cc1cccc(-n2ncc3c(Nc4c(C)n(C)n(-c5ccccc5)c4=O)ncnc32)c1	-16.8%
Cc1ccc(-c2nc(CSCC(=O)Nc3cc(C)on3)c(C)o2)cc1	-19.2%
O=C(c1cc2ncc(Br)cn2n1)N1CCOCC1	22.4µM*
O=C(NCc1ccccc1)N1CCN(c2ccc(F)cc2)CC1	-13.1%
O=S(=O)(c1ccccc1)c1nc(NCc2ccccc2)sc1Cl	-20.6%
O=c1[nH]c2ccccc2n1C1=CCCC1	-10.4%
O=C(Nc1nnc(SCC(=O)N2CCCCC2)s1)C1CCCCC1	14.1µM*
O=C(CN1C(=O)CCC1=O)Nc1ccc(S(=O)(=O)N2CCOCC2)cc1	-14.1%
COc1ccc2nc(NC(=O)CSc3ccccc3)sc2c1	-29.3%
ClC(Cl)(Cl)C(N1CCN(c2ccccc2)CC1)N1CCN(c2ccccc2)CC1	3.4%
Cc1nc2ccccc2n1-c1ccccc1	-13.5%
COc1cc(NC(=O)C2CC(=O)NC3=C2C(=O)CC(C)(C)C3)c(OC)cc1Cl (stereo not given)	-18.9%
COc1ccc(/C=C2\OC(=O)c3c(OC)cccc32)cc1OC	?
Cc1ccc(-c2noc(C3CCCN(S(=O)(=O)c4ccc(S(=O)(=O)N(C)C)cc4)C3)n2)o1 (stereo not given)	-12.3%
Clc1ccc2c(c1)C(c1cccs1)=NNC(c1cccnc1)=N2	-4.7%
OC(Cn1cncn1)c1ccc(Cl)cc1Cl (stereo not given)	-5.8%
CCOc1ccc(-c2nc(-c3cccnc3)no2)cc1OCC	-16.1%
CC(C(=O)O)N1C(=O)CSc2ncccc21 (stereo not given)	-6.4%
CCCNS(=O)(=O)c1ccc(CCC(=O)NCC2CCCO2)cc1 (stereo not given)	0.7%
CC1Cc2ccccc2N1C(=O)CCN1C(=O)C2C3C=CC(C3)C2C1=O (stereo not given)	-10.8%
COc1ccc(S(=O)(=O)N(CC(=O)Nc2cccnc2)c2ccccc2OC)cc1	2.24µM*
CC(=O)Nc1ccc(S(=O)(=O)N2CCN(C(=O)CCC3CCCC3)CC2)cc1	-1.7%
O=C1C2C3C=CC(CC3)C2C(=O)N1/N=C/c1ccc(O)cc1 (stereo not given)	28.2µM*
COCCn1nnnc1CN(CCCN1CCOCC1)Cc1cc2c(C)ccc(C)c2[nH]c1=O	?
O=c1ccc(-c2ccccc2)n[nH]1	-11.4%&-13.0%
COc1ccccc1NS(=O)(=O)c1ccc(C)c(C(N)=O)c1	-6.4%
Cc1ccccc1NC(=O)CSc1nc2c(c(-c3ccco3)c1C#N)CCCC2	-6.4%
COc1ccc(C(CC(=O)O)NC(=O)COc2ccccc2OC)cc1OC (stereo not given)	-10.7%
COc1ccc2[nH]c(=O)c(CN(Cc3ccccc3OC)Cc3nnnn3CC3CCCO3)cc2c1 (stereo not given)	?
CN1CC2([N+](=O)[O-])CC=C(Oc3ccccc3)C([N+](=O)[O-])(C1)C2 (stereo not given)	-14.0%
CCOC(=O)c1cnc(-n2nc(C)cc2C)nc1-n1nc(C)cc1C	-2.8%
CCOc1ccc(Cn2c(SCCCCC#N)nc3c2c(=O)n(C)c(=O)n3C)cc1OCC	?
CSc1nc(N(CCO)CCO)c2sc3nc(-c4ccco4)c4c(c3c2n1)CCC4	?
COC(=O)COc1ccc(S(=O)(=O)N2CCN(c3ccccc3F)CC2)cc1	-11.6%
Cc1cccc(C(=O)N2CCC(c3nc(-c4ccc(S(=O)(=O)N5CCOCC5)cc4)no3)CC2)c1	-3.2%
CC(C)n1c(Nc2ccccc2)nc2ccccc21	-15.2%
Cc1ccc(-n2c(C)cc(C(=O)OCC(=O)N(CC(C)C)C3CCS(=O)(=O)C3)c2C)cc1 (stereo not given)	-16.8%
CCOc1ccc(-n2nnc3c(=O)n(C/C=C/c4ccccc4)cnc32)cc1	-18.7%
COc1ccc(CSc2nc(CSC)cc(N3CCOCC3)n2)cc1	-14.4%
CCOC(=O)N1CCN(Cc2nc(N)nc(Nc3ccc(Oc4ccccc4)cc3)n2)CC1	-16.6%
COc1cc2c(C(=O)NCc3ccc4c(c3)OCO4)cn(CC(C)C)c(=O)c2cc1OC	-2.6%
CCOc1ccccc1NC(=O)C12CC3CC(C1)CC(c1ccc(C)cc1)(C3)C2	-2.2%
Cc1ccc(N2CC(C(=O)Nc3ccc(S(=O)(=O)N4CCCC4)cc3)CC2=O)cc1 (stereo not given)	1.5%
O=S1(=O)C=C(Oc2ccc3ccccc3c2)c2ccccc21	-24.8%
O=c1cc(NS(=O)(=O)c2ccccc2)nc(SCc2c(Cl)cccc2Cl)[nH]1	-16.0%
COCCn1c(SCC(=O)c2ccc(CNC(C)=O)o2)nc2ccccc2c1=O	-18.1%
O=C1C=C(c2ccccc2)OC(=O)C1C(=O)c1ccccc1 (stereo not given)	-18.4%
CN(CC(=O)N1CCCC1)S(=O)(=O)c1cc(Cl)ccc1Cl	-44.7%
CN(C)S(=O)(=O)c1cc(C(=O)NCC2CCCO2)c(Cl)cc1Cl (stereo not given)	-6.9%
O=C(N/C=N/OCc1cccc(C(F)(F)F)c1)N1OC[C@@H]2COc3ccc4ccccc4c3[C@@H]21	-19.7%
COc1cc(/C=C/c2ccc3cccc([N+](=O)[O-])c3n2)ccc1OCC#N	-3.0%
O=C(CNc1ccc2c(c1)OCO2)N/N=C\c1cn(Cc2ccc(F)cc2)c2ccccc12	-18.5%
CCOc1ccc(CC(=O)Nc2sc(Cc3ccccc3)c(C)c2C(N)=O)cc1OCC	-25.9%
CCc1ccc(C2CC(c3ccccc3)n3ncnc3N2)cc1 (stereo not given)	-10.7%
O=C(Cc1cc(=O)[nH][nH]1)N/N=C/C=C/c1ccccc1	-11.6%&-27.3%
COc1cc(/C=C2/C(=O)c3cccc([N+](=O)[O-])c3C2=O)c(Br)cc1O	1.41µM*
CN(N=O)C(=O)N[C@H]1C(O)OC(CO)[C@@H](O)[C@H]1O (stereo not given in full)	-14.4%
CC1(C)OC(=O)C(=CNc2cccc(O)c2)C(=O)O1	-12.8%
COc1ccc(OC)c(CN(CCCN2CCOCC2)S(=O)(=O)c2ccc(NC(C)=O)cc2)c1	-5.2%
COc1ccccc1NC(=O)c1nn(-c2ccc(Cl)cc2)ccc1=O	-16.0%

The closing four entries of the section above are carried over, then new ones follow.
canonical_smiles	HPGD inh
CN(N=O)C(=O)N[C@H]1C(O)OC(CO)[C@@H](O)[C@H]1O (stereo not given in full)	-14.4%
CC1(C)OC(=O)C(=CNc2cccc(O)c2)C(=O)O1	-12.8%
COc1ccc(OC)c(CN(CCCN2CCOCC2)S(=O)(=O)c2ccc(NC(C)=O)cc2)c1	-5.2%
COc1ccccc1NC(=O)c1nn(-c2ccc(Cl)cc2)ccc1=O	-16.0%
Cc1ccc(C(c2nnnn2C2CCCCC2)N2CCc3ccccc32)cc1 (stereo not given)	-8.9%
Cc1nn(-c2ccccc2)c(N2CCCC2)c1/C=N/NC(=O)c1cccc(S(=O)(=O)Nc2ccc(Cl)cc2)c1	-20.2%
CCOn1c(=O)c(-c2cccs2)[n+]([O-])c2ccccc21	-21.7%
O=C(CCS(=O)(=O)c1ccc(Br)cc1)N1CCN(Cc2ccccc2)CC1	-1.7%
CCN(CC)C(=O)c1sc(NC(=O)c2cc(-c3ccc(C)s3)nc3ccccc23)c(C(=O)OC)c1C	?
Cc1cc(Nc2ccccc2)c2c([N+](=O)[O-])cc(C)c(C)c2n1	-12.7%
COc1ccccc1C1CC(c2ccc(Cl)cc2)Nc2ncnn21 (stereo not given)	-14.0%
CCC(C(=O)Nc1c[nH]c(=O)[nH]c1=O)c1ccccc1 (stereo not given)	-7.4%
Cc1cc(=O)oc2cc(O[C@@H]3O[C@H](C(=O)O)[C@@H](O)[C@H](O)[C@H]3O)ccc12	?
COc1cc(/C=C/C(=O)O)ccc1O	-22.7%
O=C1c2ccccc2C(=O)N1CCCc1nc(-c2ccccn2)no1	-9.7%
CCCS(=O)(=O)N1CCCC(C(=O)NCCc2ccc(Cl)cc2)C1 (stereo not given)	-3.3%
COc1ccc2c(c1)C(=O)[C@@H](OC(=O)NCCc1ccc(OC)c(OC)c1)[C@H](c1ccc(OC)c(Br)c1)O2	-13.1%
OC1(c2cccnc2)CCN(Cc2nnnn2C2CCCCC2)CC1	1.6%
O=C(NCc1ccccn1)c1ccc(COc2ccc(Cl)cc2)o1	-16.3%
CC(NC(=O)c1ccccc1NC(=O)c1ccco1)c1ccccc1 (stereo not given)	-5.6%
Cc1cc(N2CCC(C)CC2)nc(NCc2ccccc2)n1	-5.9%
CCn1c(SCC(=O)Nc2nccs2)nnc1-c1ccc(C)cc1	-7.1%
C/C(=N\NC(=O)c1ccccc1O)C1C(=O)c2ccccc2C1=O	?
COc1ccc2cc(C(=O)O)ccc2c1	-12.1%
CC(C)OC(=O)CSc1nnc(-c2ccccn2)n1C	-7.6%
COCC(=O)N1CCC[C@@]2(CCN(Cc3ccccc3OC)C2)C1	-12.7%
COc1ccccc1OCC(=O)Nc1ccc(CSc2ccccc2)cc1C	-11.8%
O=C(COC(=O)c1ccccc1[N+](=O)[O-])c1ccc(C2CCCCC2)cc1	-23.1%
Cc1cc2c(ccc3[nH]onc32)n1	-24.7%
Fc1cccc2sc(Nc3nc4cc5c(cc4s3)OCCO5)nc12	?
Cc1cccc(NC(=O)CSc2nnc(-c3ccc(S(=O)(=O)N4CCOCC4)cc3)n2C)c1	-4.1%
COc1cc(NS(=O)(=O)c2ccc(N=Cc3c(C)[nH]n(-c4ccccc4)c3=O)cc2)nc(OC)n1	-14.8%
NC(=O)c1nsc(C(=O)N(CC(=O)NCc2ccc3c(c2)OCO3)C2CCCC2)c1N	?
Cc1onc(-c2ccccc2Cl)c1C(=O)Nc1nnc(-c2ccc(Cl)cc2Cl)s1	?
COc1ccc(C(=O)NC(=S)NC2CCSC2=O)cc1 (stereo not given)	-4.5%
COc1ccc2cc(CN(CC3COCCO3)S(=O)(=O)c3ccc(Cl)cc3)c(=O)[nH]c2c1 (stereo not given)	26.4%
CC(=O)Nc1ccc(NC(=O)c2ccc(-n3c(C)ccc3C)cc2)cc1	25.1µM*
CCn1c2ccccc2c2cc(NC(=O)C/C(C)=N/NC(=O)c3ccccc3N)ccc21	?
Cc1cc(C)c2c(n1)nn1c(NCCCN(C)C)cc(C)nc21	?
COc1ccc(CNC(=O)C2=C(C)C(=O)OC23CCC(C)CC3)cc1 (stereo not given)	-8.0%
COc1cc(NC(=O)COc2ccc(F)cc2)nc(OC)n1	-5.9%
Nc1n[nH]c(-c2ccc(Br)cc2)c1Cl	-11.2%
CC1=NN(c2ccc(C(=O)OC(C)C)cc2)C(=O)/C1=C\C=C\c1ccco1	-22.6%
C/C(=N/O)c1c(O)c(C)c(-c2ccccc2)n(-c2ccccc2)c1=O	0.2%
COc1ccc(C2=NN(C(=O)CSc3ncccn3)C(c3ccc(C)cc3)C2)cc1 (stereo not given)	?
CCOc1ncccc1C(=O)N(CC)CC(=O)Nc1ccc(NC(C)=O)cc1	-1.3%
COCC(C)n1c(SCC(=O)NC(=O)Nc2ccc3c(c2)OCCO3)nc2ccccc2c1=O (stereo not given)	-2.3%
Cc1c(NC(=O)CSc2n[nH]c(-c3ccccc3)n2)c(=O)n(-c2ccccc2)n1C	-10.1%
CCOC(=O)c1c(NC(=O)CNCCOC)sc2c1CCCC2	-20.9%
Cc1cc(C)cc(NC(=O)c2cc(Cl)sc2Cl)c1	31.6µM*
Cc1occc1C(=O)Nc1ccc(S(=O)(=O)N2CCCC2)cc1	-12.2%
CC(CN1c2ccccc2Sc2ccccc21)N(C)C (stereo not given)	-26.4%&-9.2%&-5.9%
COc1ccc(C(=O)N2CCC(C(=O)NCc3ccccn3)CC2)cc1	-9.2%
O=C1N/C(=C\c2ccccc2)c2ccccc21	-18.1%
O=C(Nc1ccc([N+](=O)[O-])c(NC(=O)C2CCCO2)c1)C1CCCO1 (stereo not given)	-10.4%
CCOC(=O)C1(CC)CC(CSc2nc3ccccc3[nH]2)OC1=O (stereo not given)	-5.5%
O=c1c2ccccc2nc(-c2ccc(Cl)c(Cl)c2)n1O	-5.1%
Cc1cc(Nc2cc(F)ccc2C)n2ncnc2n1	-19.3%
O=C(/C=C/c1ccc2c(c1)OCO2)Nc1nc(-c2ccccc2)cs1	?
CCn1c(Cc2c(C)[nH]c3ccccc23)n[nH]c1=S	-29.3%
O=S(=O)(c1ccc(F)cc1)c1nc(-c2ccccc2F)oc1N1CCCCC1	-6.4%
Cc1ccccc1OCC(=O)NCC(=O)N/N=C/C=C/c1ccccc1	-2.1%

Part of the list above, set out differently.
HPGD inh	canonical_smiles
-18.4%	O=C1C=C(c2ccccc2)OC(=O)C1C(=O)c1ccccc1 (stereo not given)
-44.7%	CN(CC(=O)N1CCCC1)S(=O)(=O)c1cc(Cl)ccc1Cl
-6.9%	CN(C)S(=O)(=O)c1cc(C(=O)NCC2CCCO2)c(Cl)cc1Cl (stereo not given)
-19.7%	O=C(N/C=N/OCc1cccc(C(F)(F)F)c1)N1OC[C@@H]2COc3ccc4ccccc4c3[C@@H]21

These rows are one share of the data. The share of hits here may be higher or lower than overall.
